Vaccinia stage = Vaccinia orthopox stage-specific inhibition; 89,000 compounds, 0.01% hits; activity change (mCherry), % (concentration not given with the values); Vaccinia-infected cells, mCherry/Venus stage reporter fluorescence; active compounds read low; some inactives read as strong as hits;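 active means mCherry past -33% and 40 or more points under the early reporter, replicates agreeing; inconclusive means past -33% without that gap or agreement; tested in A549 cells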;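 further: scaled between vehicle wells and reference inhibitor wells; 23 nL library stock went into each well; one replicate is shown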
Vaccinia stage Venus = also measured in Vaccinia stage; calls as there; activity change (Venus), %; measured here: Venus reporter, other viral stage;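 negative = less Venus signal; first of two replicates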
* marks the source's active call; other numbers are inactive results; u = inconclusive; x = not tested or not shown.

compound	Vaccinia stage	Vaccinia stage Venus
CO[C@H]1CN(C)C(=O)c2cc(NC(=O)Nc3cc(F)ccc3F)ccc2OC[C@H](C)N(C)C[C@H]1C	-24.0	-8.9
COc1cccc(NC(=O)Nc2ccc3c(c2)C(=O)N(C)C[C@H](OC)[C@@H](C)CN(C)[C@@H](C)CO3)c1	3.9	1.2
CO[C@@H]1CN(C)C(=O)c2ccc(NC(=O)c3ccccc3)cc2OC[C@@H](C)N(CC2CC2)C[C@H]1C	13.7	6.0
O=C(NCc1nc2ccccc2[nH]1)C1=C[C@H](c2ccc3c(c2)OCO3)C[C@H](OCCCCO)O1	0.7	0.6
CC(C)NC(=O)N1CCCCN2[C@H](C1)[C@H](c1ccc(Br)cc1)[C@@H]2CO	22.6	12.8
C[C@@H]1CN([C@@H](C)CO)S(=O)(=O)c2ccc(C#Cc3ccc(F)cc3)cc2O[C@H]1CN(C)S(C)(=O)=O	u	x
O=C(C[C@@H]1CC[C@H](NC(=O)Nc2cc(F)ccc2F)[C@H](CO)O1)Nc1ccc(-c2ccccc2)cc1	-23.2	-10.1
O=C(N[C@@H]1CC[C@@H](CCNS(=O)(=O)c2ccc(F)cc2)O[C@@H]1CO)C1CCOCC1	-3.4	-0.9
C[C@@H]1CN([C@H](C)CO)S(=O)(=O)c2ccc(C3=CCCC3)cc2O[C@H]1CN(C)S(=O)(=O)c1ccc(F)cc1	-5.7	-0.9
CCCN(C)C[C@@H]1Oc2ncc(-c3cccc(C(=O)N(C)C)c3)cc2C(=O)N([C@H](C)CO)C[C@@H]1C	23.1	1.5
COCCNC(=O)C[C@@H]1CC[C@@H](NC(=O)NC2CCCC2)[C@@H](CO)O1	-3.0	0.7
CO[C@@H]1CN(C)C(=O)c2cc(NC(=O)Nc3ccccc3F)ccc2OC[C@@H](C)N(CC2CC2)C[C@@H]1C	-16.9	-6.0
COc1ccc(NC(=O)N(C)C[C@@H]2Oc3ccc(NC(=O)Nc4ccc(F)cc4)cc3CC(=O)N([C@H](C)CO)C[C@H]2C)cc1	12.1	14.2
O=C(C[C@H]1CC[C@H]2[C@@H](COC[C@@H](O)CN2C(=O)c2ccc3c(c2)OCO3)O1)NC1CCC1	-0.5	-1.3
C[C@H]1CN([C@@H](C)CO)C(=O)c2cc(NC(=O)Nc3ccc4c(c3)OCO4)ccc2O[C@H]1CN(C)Cc1ccc(C(=O)Nc2ccccc2N)cc1	10.2	0.5
CC(C)NC(=O)N(C)C[C@@H]1Oc2ccc(NC(=O)Cc3cn(C)c4ccccc34)cc2C(=O)N([C@H](C)CO)C[C@H]1C	9.6	15.5
C[C@@H]1CN([C@@H](C)CO)C(=O)c2cc(NC(=O)Nc3ccc(C(F)(F)F)cc3)ccc2O[C@H]1CN(C)S(C)(=O)=O	2.2	1.0
C[C@@H]1CN([C@@H](C)CO)C(=O)c2cc(NS(=O)(=O)c3cn(C)cn3)ccc2O[C@@H]1CN(C)S(=O)(=O)c1ccc(Cl)cc1	16.3	12.0
COc1ccc(NC(=O)N(C)C[C@@H]2Oc3ccc(NC(=O)C4CC4)cc3C(=O)N([C@@H](C)CO)C[C@@H]2C)cc1	-1.7	-7.8
O=C(NCC[C@H]1CC[C@@H](NC(=O)c2cnccn2)[C@H](CO)O1)c1ccc2c(c1)OCO2	1.2	2.0
CN1C(=O)c2cc(NC(=O)c3cccs3)ccc2OC[C@@H]2O[C@@H](CC(=O)NCC(F)(F)F)CC[C@H]21	15.7	5.9
C[C@@H]1CN([C@@H](C)CO)C(=O)Cc2cc(NC(=O)NC3CCCCC3)ccc2O[C@@H]1CN(C)S(=O)(=O)c1ccc(Cl)cc1	-17.4	-11.5
O=C(C[C@H]1C=C[C@H](NS(=O)(=O)c2ccc(F)cc2)[C@H](CO)O1)N1CCC(Cc2ccccc2)CC1	-15.8	-8.3
C[C@@H]1CN([C@H](C)CO)C(=O)c2cc(-c3cccc(C#N)c3)cnc2O[C@H]1CN(C)C(=O)c1ccccn1	6.4	16.4
COc1ccc(S(=O)(=O)N(C)C[C@@H]2Oc3c(NS(C)(=O)=O)cccc3C(=O)N([C@H](C)CO)C[C@@H]2C)cc1	6.9	14.3
CN1C(=O)c2cc(NC(=O)C3CCCC3)ccc2OC[C@@H]2O[C@@H](CC(=O)NCc3ccccc3F)CC[C@@H]21	22.1	3.1
C[C@@H]1CN([C@@H](C)CO)C(=O)c2cc(-c3ccccc3)cnc2O[C@H]1CN(C)C(=O)Cc1cccnc1	13.0	7.4
CC(=O)N1CC(=O)N2[C@H](CO)[C@H](c3ccc(C#Cc4cccnc4)cc3)[C@H]2C1	10.5	8.1
CC(C)NC(=O)N[C@@H]1CC[C@H](CCn2cc(-c3ccc(F)cc3)nn2)O[C@@H]1CO	-7.2	-6.3
O=C(C[C@H]1CC[C@H](NS(=O)(=O)c2ccccc2)[C@H](CO)O1)N1CCC(Cc2ccccc2)CC1	-17.6	-21.5

Reprinted from the entries so far (3 entries):
compound	Vaccinia stage	Vaccinia stage Venus
CC(=O)N1CC(=O)N2[C@H](CO)[C@H](c3ccc(C#Cc4cccnc4)cc3)[C@H]2C1	10.5	8.1
CC(C)NC(=O)N[C@@H]1CC[C@H](CCn2cc(-c3ccc(F)cc3)nn2)O[C@@H]1CO	-7.2	-6.3
O=C(C[C@H]1CC[C@H](NS(=O)(=O)c2ccccc2)[C@H](CO)O1)N1CCC(Cc2ccccc2)CC1	-17.6	-21.5

Additional results
compound	Vaccinia stage	Vaccinia stage Venus
O=C(C[C@H]1C=C[C@H](NC(=O)Nc2ccccc2F)[C@H](CO)O1)NCc1ccc(-c2ccccc2)cc1	-3.1	2.7
CO[C@H]1CN(C)C(=O)c2cc(NC(=O)C3CCCCC3)ccc2OC[C@H](C)N(Cc2nccs2)C[C@@H]1C	-5.3	-6.4
O=C(c1ccccn1)N1CC2(C1)[C@@H](c1ccccc1)[C@@H](CO)N2C(=O)C1CCCC1	8.7	8.6
COc1ccc(CN(C)C[C@@H]2OCCCC[C@@H](C)Oc3ccc(NC(=O)Nc4c(C)noc4C)cc3C(=O)N([C@H](C)CO)C[C@H]2C)cc1	12.9	7.9
CC(C)NC(=O)N(C)C[C@H]1Oc2ccc(NC(=O)CCCN(C)C)cc2C(=O)N([C@H](C)CO)C[C@@H]1C	5.9	4.5
Cc1ccccc1-c1ccc([C@H]2[C@H](CO)N3CCCCN(C(=O)Nc4ccc(F)cc4)C[C@@H]23)cc1	u	x
O=C(C[C@H]1C=C[C@H](NC(=O)C2CC2)[C@H](CO)O1)NCc1ccncc1	-3.9	-0.5
C[C@@H]1CCCCO[C@H](CN(C)Cc2ccc(C(F)(F)F)cc2)[C@H](C)CN([C@@H](C)CO)C(=O)c2cc(NC(=O)NC3CCCCC3)ccc2O1	u	x
C[C@H]1CN([C@@H](C)CO)S(=O)(=O)c2ccc(C#Cc3ccc(F)cc3)cc2O[C@@H]1CN(C)C(=O)NC1CCCC1	u	x
O=C(C[C@@H]1C=C[C@@H](NS(=O)(=O)c2ccc(F)cc2)[C@H](CO)O1)NCCc1ccncc1	5.5	12.5
COc1cccc(CN2CC3(CN(C)C3)c3c([nH]c4cc(OC)ccc34)[C@@H]2CO)c1	-3.3	-3.8
C[C@@H]1CN([C@H](C)CO)C(=O)c2ccccc2-c2ccccc2CO[C@H]1CN(C)S(=O)(=O)c1ccc(F)cc1	26.2	16.8
O=C(C[C@H]1C[C@@H]2c3cc(NC(=O)Nc4ccccc4F)ccc3O[C@@H]2[C@H](CO)O1)NCc1ccc(Oc2ccccc2)cc1	2.2	-0.5
N#C[C@H]1[C@H](c2ccccc2-c2cccc(F)c2)[C@@H](CO)N1C(=O)C1CCCC1	-23.9	-17.5
O=C(Nc1ccccc1F)N[C@@H]1CC[C@H](CCNS(=O)(=O)c2ccc(F)cc2)O[C@H]1CO	-14.0	-7.3
COc1ccc(NC(=O)Nc2ccc3c(c2)C(=O)N([C@H](C)CO)C[C@H](C)[C@@H](CN(C)C(=O)Nc2c(C)noc2C)OCCCC[C@@H](C)O3)cc1	0.2	2.6
COc1ccc2c3c([nH]c2c1)[C@H](CO)N(C(=O)Nc1cccc(F)c1)CC31CCN(S(=O)(=O)c2cccc(C)c2)CC1	u	x
O=C(C[C@@H]1C=C[C@H](NC(=O)c2cccnc2)[C@H](CO)O1)NCc1ccncn1	15.9	13.0
CCC(=O)N1[C@H](CNC(C)=O)[C@@H](c2ccc(-c3ccc(F)cc3)cc2)[C@@H]1CO	-5.0	-2.5
C[C@@H]1CN([C@@H](C)CO)C(=O)c2cccc(NC(=O)c3ccc(-c4nccs4)cc3)c2O[C@H]1CN(C)S(=O)(=O)c1ccccc1	9.6	11.6
C[C@H](CO)N1C[C@H](C)[C@@H](CN(C)CC2CCCCC2)Oc2ccc(NS(=O)(=O)c3cccs3)cc2C1=O	12.4	8.4
[N-]=[N+]=Nc1ccccc1C[C@@]1(C(=O)N2CCOCC2)N=C(c2ccc(OCCCO)cc2)O[C@@H]1c1ccccc1	-5.6	-4.8
Cc1noc(C)c1NC(=O)N(C)C[C@@H]1Oc2ccc(NC(=O)C3CCCCC3)cc2C(=O)N([C@@H](C)CO)C[C@H]1C	9.7	13.2
CCS(=O)(=O)Nc1ccc2c(c1)C(=O)N(C)[C@@H]1CC[C@@H](CC(=O)NCc3ccc(OC)cc3)O[C@@H]1CO2	29.6	22.8
C[C@H](CO)N1C[C@H](C)[C@@H](CN(C)Cc2ccccc2)OCCCC[C@H](C)Oc2ccc(NS(C)(=O)=O)cc2C1=O	-4.4	6.8
C[C@@H]1CN([C@@H](C)CO)C(=O)c2ccccc2-c2ccccc2CO[C@H]1CN(C)S(=O)(=O)c1ccccc1	11.2	12.3
CCC(=O)Nc1ccc2c(c1)C(=O)N(C)C[C@@H](OC)[C@@H](C)CN(CC1CC1)[C@H](C)CO2	12.3	10.1
COCC(=O)Nc1ccc2c(c1)[C@H]1C[C@H](CC(=O)NC3CCCCC3)O[C@@H](CO)[C@H]1O2	5.3	11.7
CCC(=O)N[C@H]1C=C[C@@H](CC(=O)NCc2ccccc2F)O[C@H]1CO	0.6	8.1
CO[C@H]1CN(C)C(=O)c2ccc(NS(=O)(=O)C3CCCCC3)cc2OC[C@H](C)NC[C@@H]1C	4.5	1.3
C[C@H](CO)N1C[C@H](C)[C@H](CN(C)C(=O)Nc2ccc3c(c2)OCO3)Oc2c(NC(=O)C3CCCCC3)cccc2C1=O	-4.5	-2.4
O=C(O)C[C@H]1CC[C@H]2[C@@H](COC[C@H](O)CN2S(=O)(=O)c2ccc(Oc3ccccc3)cc2)O1	6.0	-4.7
COc1ccc(S(=O)(=O)Nc2ccc3c(c2)C(=O)N([C@@H](C)CO)C[C@@H](C)[C@H](CN(C)C(=O)CCCN(C)C)OCCCC[C@H](C)O3)cc1	16.0	14.4
C[C@H](CO)N1C[C@H](C)[C@H](CN(C)C(=O)Nc2ccccc2)Oc2ccc(NC(=O)C3CC3)cc2C1=O	18.7	16.5
COc1ccc(NC(=O)N[C@H]2CC[C@H](CC(=O)NC3CCCCC3)O[C@H]2CO)cc1	-2.7	-0.8
O=C(C[C@H]1C[C@@H]2c3cc(NC(=O)Nc4ccccc4)ccc3O[C@@H]2[C@H](CO)O1)NCc1ccccc1	23.4	26.3
C[C@H](CO)N1C[C@H](C)[C@@H](CN(C)S(=O)(=O)c2ccccc2)Oc2c(NC(=O)C3CCOCC3)cccc2C1=O	23.7	10.2
O=C(Nc1cccc(Cl)c1)N[C@@H]1CC[C@@H](CCNC(=O)C2CCCCC2)O[C@@H]1CO	4.4	2.6
CCC(=O)Nc1ccc2c(c1)C(=O)N(C)[C@@H]1CC[C@@H](CC(=O)N3CCCCC3)O[C@H]1CO2	3.0	3.7
Cc1noc(C)c1S(=O)(=O)Nc1ccc2c(c1)CC(=O)N([C@H](C)CO)C[C@@H](C)[C@@H](CN(C)Cc1ccncc1)O2	13.8	9.4
O=C(Nc1ccccc1F)N[C@@H]1CC[C@H](CCNS(=O)(=O)c2ccc(F)cc2)O[C@@H]1CO	-5.9	-5.1
COc1ccc(CN(C)C[C@H]2Oc3c(NS(=O)(=O)c4ccc(C)cc4)cccc3C(=O)N([C@H](C)CO)C[C@H]2C)cc1	-7.8	-0.1
COc1ccc2c3c(n(C)c2c1)[C@H](CO)N(C(=O)Nc1ccc(F)cc1)CC31CN(C(=O)c2cccnc2)C1	0.4	-4.6
CN(C)CCCN1C(=O)[C@@]2(Cc3ccccc31)c1ccccc1C(=O)N(Cc1ccccc1C(F)(F)F)[C@H]2c1ccc(CO)cc1	1.4	-9.7
Cc1ccc(S(=O)(=O)Nc2ccc3c(c2)C(=O)N([C@H](C)CO)C[C@@H](C)[C@H](CN(C)S(=O)(=O)c2ccccc2)O3)cc1	10.8	7.6
CCC(=O)N1CCC2(CC1)CN(Cc1cccc(F)c1)[C@@H](CO)c1c2c2ccc(OC)cc2n1C	-8.9	-1.3
O=C(Nc1ccc(F)cc1)N1CC(=O)N2[C@H](CO)[C@H](c3ccc(C#Cc4ccc(F)cc4)cc3)[C@@H]2C1	u	x
CO[C@@H]1CN(C)C(=O)c2ccc(NC(=O)C3CC3)cc2OC[C@@H](C)N(S(=O)(=O)c2ccc(Cl)cc2)C[C@H]1C	-11.2	-6.6
C[C@H]1CN([C@@H](C)CO)C(=O)c2cc(NC(=O)C3CCCCC3)ccc2O[C@H]1CN(C)C(=O)Nc1ccc(C(F)(F)F)cc1	-26.8	-9.2
C[C@@H]1CCCCO[C@H](CN(C)C(=O)CCC(F)(F)F)[C@H](C)CN([C@@H](C)CO)C(=O)c2cc(NS(=O)(=O)c3ccccc3)ccc2O1	-19.8	-13.5

The list is partial, so the mix of outcomes need not match the whole.
